# Mtb bLac sens: beta-lactam sensitization of Mtb H37Rv, H37Rv. M. tuberculosis H37Rv growth with meropenem, percent inhibition; hits of this screen are not shown here. inhibition, % at 25 µM. 0.27% of 330,000 active;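 active = about 74% or more and at least 40 points above the plate without the antibiotic, then above 30% in a dose series; inconclusive = first-round hits that could not be retested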;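 also: growth measured after seven days incubation then overnight dye step; 0% = bacteria only wells and 100% = bacteria with antibiotic; twin plates without the antibiotic show which effects depend on it; some results filed as inactive read as strong as hits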
# RecA splice inh: Mtb RecA intein splicing inhibitors, primary screen, biochemical, fluorescence, HTS | cell-free RecA intein splicing | inhibition, %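 (about 9 µM by stock and volumes)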 | 0.75% of 290,000 active | Protein RecA (Mycobacterium tuberculosis (strain ATCC 25618 / H37Rv)), P9WHJ3; in the data active = inhibition above about 30%; inconclusive = no clear call, values can overlap the other calls;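 also: 0% = vehicle wells and 100% = reference inhibitor control wells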
# Target sequence (P9WHJ3 whole entry, looked up, canonical isoform): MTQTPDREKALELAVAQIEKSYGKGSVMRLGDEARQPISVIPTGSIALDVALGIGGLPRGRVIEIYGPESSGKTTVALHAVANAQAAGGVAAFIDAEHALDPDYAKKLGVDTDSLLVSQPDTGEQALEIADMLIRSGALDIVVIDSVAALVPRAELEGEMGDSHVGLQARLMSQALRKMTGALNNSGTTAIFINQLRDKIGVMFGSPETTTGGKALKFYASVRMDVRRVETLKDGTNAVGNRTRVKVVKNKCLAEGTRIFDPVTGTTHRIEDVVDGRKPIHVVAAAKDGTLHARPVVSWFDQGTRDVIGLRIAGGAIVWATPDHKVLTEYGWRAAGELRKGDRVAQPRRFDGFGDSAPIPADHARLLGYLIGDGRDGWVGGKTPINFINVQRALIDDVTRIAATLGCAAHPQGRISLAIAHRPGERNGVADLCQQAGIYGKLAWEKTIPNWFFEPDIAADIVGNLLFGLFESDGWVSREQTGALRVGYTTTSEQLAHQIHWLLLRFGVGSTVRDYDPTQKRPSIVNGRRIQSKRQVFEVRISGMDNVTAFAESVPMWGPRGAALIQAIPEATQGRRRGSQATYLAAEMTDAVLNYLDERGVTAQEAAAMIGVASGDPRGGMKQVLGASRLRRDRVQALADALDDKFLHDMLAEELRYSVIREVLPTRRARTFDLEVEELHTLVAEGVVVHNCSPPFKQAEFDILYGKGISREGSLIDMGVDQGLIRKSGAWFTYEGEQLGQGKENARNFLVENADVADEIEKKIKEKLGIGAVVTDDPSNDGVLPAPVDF
# Mtb growth: M. tuberculosis H37Rv growth inhibitors, H37Rv strain (AID 1626); M. tuberculosis H37Rv growth inhibition; higher % means a stronger effect; inhibition, % at 10 µM, or IC50 in µM where a hit was titrated; 0.95% of 220,000 active;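 active = confirmed in a dose series; inconclusive = inhibition above 80% but not taken into the dose series; inactive = below 80% or under 30% at every dose of the series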;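 also: bacteria incubated seven days before Alamar blue readout; 0% = bacteria only wells and 100% = bacteria with antibiotic wells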
# YopH PTP inh: YopH tyrosine phosphatase inhibitors, primary screen, biochemical, fluorescence Ex485/Em525; YopH tyrosine phosphatase [Yersinia enterocolitica]; 0.16% of 140,000 active; inhibition, %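 (about 10 µM by stock and volumes)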;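 active = inhibition of 50% or more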;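 also: controls were vehicle for no effect and minimum signal wells for full effect; inactives centre near -20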
# Arbovirus inh: antivirals against arbovirus infection, primary screen, cell-based, full library, 10K replicate subset | arbovirus infection cell-based antiviral screen | inhibition, % at 10 µM | 0.37% of 200,000 active | AID 1251, 2008;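 active = inhibition from about 30%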;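 also: bluetongue infection of BSR cells; cell survival read as ATP light after 72 h; 0% = infected wells without compound and 100% = uninfected wells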
# Arbovirus inh repeat: recorded beside Arbovirus inh, whose call it bears; inhibition, %; measured here: 10K subset replicate screen; many hits read low in the repeat;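 first of two repeat runs on a subset; 0% = infected and 100% = uninfected wells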
# Numbers without * were called inactive; ? = inconclusive; nt = no result given. Not all compounds are listed; the hit share may differ from the screen's.
SMILES,Mtb bLac sens,RecA splice inh,Mtb growth,YopH PTP inh,Arbovirus inh,others
O=C(Nc1cccc(F)c1)Nc1cccc(Cl)c1,-1,1.3,nt,nt,nt,
CC(NS(=O)(=O)c1ccc2c(c1)OCCO2)c1ccccc1 (stereo not drawn),-2,0.5,1%,nt,12,
Cc1[nH]c(=O)[nH]c(=O)c1N1CCOCC1,-7,0.5,-3%,nt,nt,
CC(C)C(=O)N1CCC(Cc2ccccc2)CC1,-2,1.3,nt,nt,nt,
COc1ccc(NC(=O)CCNC(=O)C2CCN(S(=O)(=O)c3ccc(OC)cc3)CC2)cc1,5,-0.3,nt,nt,nt,
COC(=O)C1CCN(C(=O)Nc2ccccc2)CC1,-2,-0.7,5%,nt,-4,
CCOC(=O)c1sc(=S)n(-c2ccccc2)c1NC(C)=O,-6,-0.8,-5%,nt,nt,
COC(=O)c1ccc(NC(=O)c2ccc3nsnc3c2)cc1,6,2.2,nt,nt,nt,
COc1ccc(-c2noc(-c3ccccc3C(=O)Nc3cccc(OC)c3)n2)cc1,-7,-1.4,5%,-27,-6,
COc1ccc(C2CC(=O)c3c([nH]c(C(=O)OC(C)C)c3C)C2)cc1OC (stereo not drawn),5,-3.0,6%,-27,-1,
O=C(Nc1ccccc1N1CCN(C(=O)c2ccc(Cl)cc2)CC1)c1cccc(F)c1,51,9.2,nt,nt,nt,
CC(C)(C)c1cc(C(=O)O)n(Cc2ccc(Cl)cc2Cl)n1,-6,-2.2,-2%,nt,nt,
COc1cccc(/C=C/c2n[nH]c(=O)c(C#N)c2C)c1,7,-1.3,nt,nt,nt,
COC(=O)c1cc(C(=O)NCc2ccc3c(c2)OCO3)cc([N+](=O)[O-])c1,6,-2.9,nt,nt,nt,
Cc1cc(C)cc(NC(=O)COC(=O)CCc2ccc(S(=O)(=O)N3CCOCC3)cc2)c1,-1,0.7,2%,nt,-2,
CNc1nc(Sc2ccc(C)cc2)cc(C(F)(F)F)n1,-12,1.7,5%,-21,-14,
CC1(C)CC(NS(=O)(=O)c2ccc(S(N)(=O)=O)cc2)CC(C)(C)N1,-9,-1.4,nt,nt,nt,
COc1ccc(C(=O)OCC(=O)Nc2ccc(Cl)cn2)cc1,1,0.3,-3%,nt,6,
O=C(N/N=C/C1CC=CCC1)c1cc2ccccc2cc1O (stereo not drawn),9,-17,?,-13,-10,
CSCCC(C(=O)NC1=NCCS1)N1C(=O)c2ccccc2C1=O (stereo not drawn),4,-0.9,-11%,-16,9,
COc1ccc(S(=O)(=O)N2CCN(C(=O)c3cc(-c4ccc(C)cc4)n[nH]3)CC2)cc1,?,1.4,nt,nt,nt,
O=c1oc2c(O)cccc2cc1-c1nc2ccccc2[nH]1,11,-181,nt,nt,nt,
COc1ccc(CN2CN(C(C)C)CSC2=S)cc1,84,11,6%,-70,-13,
CN1CC=C2C(C#N)=C(N)C(C#N)(C#N)[C@H](c3cccc(Cl)c3)C2C1 (stereo partly drawn),-10,-40,1%,-14,3,
Cc1cc(C)c(S(=O)(=O)N2CCCC(C(=O)NCc3ccncc3)C2)c(C)c1 (stereo not drawn),0,0.0,nt,nt,nt,
# Continuation.
SMILES,Mtb bLac sens,RecA splice inh,Mtb growth,YopH PTP inh,Arbovirus inh,others
Cc1cccc(C)c1NS(=O)(=O)c1ccc(-c2ccc(=O)[nH]n2)o1,-1,-3.3,nt,nt,nt,
COC(=O)c1ccc(/C=N\N2CCN(c3ccccc3)CC2)cc1,7,1.6,nt,nt,nt,
COc1ccc(C(CNC(=O)c2ccc(C)o2)N2CCOCC2)cc1 (stereo not drawn),-5,-1.0,nt,nt,nt,
CN(C)c1ccc(C(=O)c2ccc(N(C)C)cc2)cc1,?,0.4,2%,-5,-10,
Clc1ccc(C2[C@H]3CN(Cc4ccc(-c5ccccc5)cc4)[C@H](c4ccccc4)C34CC2(c2ccccc2)C4)cn1 (stereo partly drawn),-4,-0.8,1%,nt,nt,
Cc1nc2c(C)cccc2cc1C(=O)N/N=C/c1ccc(N(C)C)cc1,-6,0.4,-7%,-58,-17,
C=CCn1c(C)nc2c(sc3nc4c(cc32)COC(C)(C)C4)c1=O,2,-2.7,16%,nt,nt,
Cc1cc(C)n2nc(Cc3ccccc3)nc2n1,2,-2.4,-2%,-29,7,
O=C(CCCN1C(=O)/C(=C/c2ccccc2Cl)SC1=S)NNC(=O)c1ccc(Cl)cc1,-7,-6.5,-3%,nt,nt,
COC(=O)c1ccc2c(c1)NC(=O)C1CCCN21 (stereo not drawn),-5,-105,1%,nt,-2,Arbovirus inh repeat=1
Clc1ccc(OCCCN2CCCC2)cc1Cl,5,0.4,2%,5,-8,
C/C(=N\Nc1cc(N2CCOCC2)ncn1)c1ccc(O)cc1,3,-1.4,nt,nt,nt,
Cc1c(N(C(=O)CNC(=O)c2ccccc2)C2(C(=O)NC3CCCC3)CCCCC2)c(=O)n(-c2ccccc2)n1C,0,0.2,-8%,nt,5,
CC(NC(=O)c1ccc(Cl)cc1)C1CC2CCC1C2 (stereo not drawn),98,-0.9,nt,nt,nt,
COc1ccc(-n2c(CN3CCN(c4ccccc4)CC3)nc3ccc([N+](=O)[O-])cc3c2=O)c(OC)c1,7,3.6,nt,nt,nt,
Cc1occc1C(=O)Nc1ccc2c(c1)CCC2,-4,2.3,-7%,-12,-3,
C=CCN1CC(O)=C(c2nc3ccccc3[nH]2)C1=N,55,0.6,8%,nt,-1,
COc1ccccc1N(CC(=O)NCCSCc1ccccc1Cl)S(C)(=O)=O,3,0.7,nt,nt,nt,
Cc1cc(C)c(NC(=S)N(C)C)c(C)c1,5,0.6,-12%,nt,nt,
COc1cccc(C(=O)N2CCOCC2)c1OC,-11,0.7,0%,nt,-6,
Cc1c(C)n2c(SCC(=O)N3CCOCC3)nnc2[nH]c1=O,-13,-1.1,nt,nt,nt,
COc1ccccc1CN1C(=NC(=O)C2CCCCC2)SC2CS(=O)(=O)CC21 (stereo not drawn),-2,-2.6,nt,nt,nt,
CCNc1ccc(P(=O)(c2ccccc2)c2ccccc2)cc1,-7,5.4,5%,nt,2,
CC(=O)N1CCN(C(=O)CCc2nc3ccccc3c(=O)[nH]2)CC1,-7,-5.2,-3%,-20,6,
CC1CN(C(=O)CCC(=O)NCc2ccc(Cl)cc2)c2ccccc2O1 (stereo not drawn),-2,2.7,nt,nt,nt,

# Ordered by SMILES length (highest first): some entries from above.
SMILES,Mtb bLac sens,RecA splice inh,Mtb growth,YopH PTP inh,Arbovirus inh,others
Cc1c(N(C(=O)CNC(=O)c2ccccc2)C2(C(=O)NC3CCCC3)CCCCC2)c(=O)n(-c2ccccc2)n1C,0,0.2,-8%,nt,5,
COc1ccccc1CN1C(=NC(=O)C2CCCCC2)SC2CS(=O)(=O)CC21 (stereo not drawn),-2,-2.6,nt,nt,nt,
Cc1nc2c(C)cccc2cc1C(=O)N/N=C/c1ccc(N(C)C)cc1,-6,0.4,-7%,-58,-17,
COC(=O)c1ccc(/C=N\N2CCN(c3ccccc3)CC2)cc1,7,1.6,nt,nt,nt,
C/C(=N\Nc1cc(N2CCOCC2)ncn1)c1ccc(O)cc1,3,-1.4,nt,nt,nt,
CC(NC(=O)c1ccc(Cl)cc1)C1CC2CCC1C2 (stereo not drawn),98,-0.9,nt,nt,nt,

# (listing goes on)
SMILES,Mtb bLac sens,RecA splice inh,Mtb growth,YopH PTP inh,Arbovirus inh,others
COc1ccc(OC)c(CCNC(=O)c2cccc(NC3=NC4CS(=O)(=O)CC4S3)c2)c1 (stereo not drawn),4,-1.1,nt,nt,nt,
Cc1ccc(SCc2nc(-c3ccncc3)no2)cc1,14,8.5,9%,-20,1,
Cc1ccc(S(=O)(=O)N2c3ccc(S(N)(=O)=O)cc3CC2C)cc1 (stereo not drawn),0,-0.2,-2%,-19,2,
Cc1nc(C)n(CCNC(=O)c2ccco2)n1,0,-2.9,nt,nt,nt,
COc1ccc(-c2ccc(=O)n(CC(=O)N3CCN(c4ccccc4OC)CC3)n2)cc1,nt,nt,nt,-34,8,Arbovirus inh repeat=-5
Cn1c(O)c(C=NCC2CCNCC2)c(=O)n(C)c1=O,nt,1.2,-11%,-2,0,
COc1ccc(NN=Nc2ccc([N+](=O)[O-])cc2)cc1,-4,0.1,nt,nt,nt,
CC1(C)NC(=O)N(CCSc2ccc(Cl)cc2)C1=O,0,4.5,-11%,-18,2,
Cc1cc(-c2ccccc2)nc(Cl)c1C#N,-3,-1.9,5%,-29,-7,
COc1ccc(NC(=O)C(Sc2nnc(-c3ccncc3)n2-c2ccccc2C)c2ccccc2)cc1Cl (stereo not drawn),13,-3.2,15%,-20,-4,
CN(CC(=O)Nc1cccc(F)c1)C(=O)c1cc2c(s1)CCCCC2,-8,0.6,nt,nt,nt,
O=C(CN1C(=O)NC2(CCCCC2)C1=O)N(Cc1ccco1)Cc1cccs1,-15,1.6,nt,nt,nt,
CCSc1nnc(NC(=O)C(CC)(C(F)(F)F)C(F)(F)F)s1,62,-11,5%,-31,3,
CCOCCCNC(=O)C1c2ccccc2C(=O)N2CCc3ccccc3C12 (stereo not drawn),-6,4.2,-8%,2,5,
COc1ccc(CNC(=O)[C@H](C)N2C(=O)N3CCc4c([nH]c5ccc(OC)cc45)[C@@]3(C)C2=O)cc1,-2,-0.2,nt,nt,nt,
CC(C)N=C(NS(=O)(=O)c1cccs1)c1ccccc1,?,0.8,nt,nt,nt,
CCOCCCNC(=O)C(c1ccc(C)cc1)N(Cc1cccs1)C(=O)CNC(C)=O (stereo not drawn),-4,-3.3,-5%,-30,-1,
COc1ccc(CN(Cc2ccncc2)C(=O)CCC(=O)O)cc1,-10,-0.1,0%,0,6,
CC1=NN(c2ccccc2)C(=O)/C1=C\c1cn(CCC#N)nc1-c1ccc(Cl)cc1,10,37*,30%,0,-6,
O=C1CCCN1CN(C(=O)c1ccc2c(c1)OCO2)c1ccc(F)cc1,?,-6.0,0%,-35,0,
CCOc1c(OC)cccc1C1CC(=O)Nc2cc3c(cc21)OCCO3 (stereo not drawn),4,-0.1,-4%,-32,-22,
COc1ccc2nc(NC(=O)CN3C(=O)NC4(CCCC4)C3=O)sc2c1,-3,-1.5,nt,nt,nt,
O=C(/C=C(/c1ccc(Cl)cc1)n1cncn1)c1ccccc1,0,11,5%,-29,-12,
CC(=O)Oc1ccc2c(=O)c(-c3nc4ccccc4s3)coc2c1,12,-1.4,5%,nt,-10,
COc1ccc(Cc2nnn(CC(=O)O)n2)cc1,-3,-1.0,-26%,-7,-1,
NS(=O)(=O)c1ccc(S(=O)(=O)N2CCN(C3CCCC3)CC2)cc1,9,4.5,nt,nt,nt,
Cc1ccc(C)c(Cn2c(C(C)O)nc3ccccc32)c1 (stereo not drawn),4,2.3,3%,-29,2,
CCOC(=O)C1=C(COC(=O)CNC(=O)c2ccc(Cl)cc2Cl)NC(=O)NC1C (stereo not drawn),-6,1.9,nt,nt,nt,
CCC(C)NCCOCCOc1ccc(Cl)cc1Br (stereo not drawn),-3,-1.4,7%,nt,-16,

# In the list so far, these contain a furan ring, fused or not:
SMILES,Mtb bLac sens,RecA splice inh,Mtb growth,YopH PTP inh,Arbovirus inh,others
Cc1cccc(C)c1NS(=O)(=O)c1ccc(-c2ccc(=O)[nH]n2)o1,-1,-3.3,nt,nt,nt,
COc1ccc(C(CNC(=O)c2ccc(C)o2)N2CCOCC2)cc1 (stereo not drawn),-5,-1.0,nt,nt,nt,
Cc1occc1C(=O)Nc1ccc2c(c1)CCC2,-4,2.3,-7%,-12,-3,
Cc1nc(C)n(CCNC(=O)c2ccco2)n1,0,-2.9,nt,nt,nt,
O=C(CN1C(=O)NC2(CCCCC2)C1=O)N(Cc1ccco1)Cc1cccs1,-15,1.6,nt,nt,nt,

# Compound activity as filed in PubChem.
